Compound activity: PubChem BioAssay, National Center for Advancing Translational Sciences (NCATS)
2A firefly: lowers the firefly signal of an FMDV 2A StopGo reporter; HEK cells with a luciferase reporter of 2A StopGo recoding; Potency, µM (top dose mostly 57.5 µM), inactives show at the highest dose signal change, negative = less light; 0.23% of 120,000 active; AID 1745856; active = well fitted falling curve with a large enough effect; inconclusive = small, poorly fitted or top-dose-only effect; inactive = no such curve, though single readings can be large or run the other way; also: nearly all actives have a fitted effect of over 60% in size; overnight with compound
StopGo RLuc: lowers the Renilla signal of an FMDV 2A StopGo reporter. HEK cells with a luciferase reporter of 2A StopGo recoding. Potency, µM (top dose mostly 57.5 µM), for inactives: top-dose signal change, negative = less light. 0.32% of 120,000 active; active means well fitted falling curve with a large enough effect; inconclusive means small, poorly fitted or top-dose-only effect; inactive means no such curve, though single readings can be large or run the other way; also: nearly all actives have a fitted effect of over 55% in size; overnight with compound
* = called active by the depositor; ? = inconclusive; & = joins results of further samples; [ ] = dose if it differs, or a comment. % is scaled to controls: 0 for no effect and ±100 for the full control effect; potency is read from the fitted curve at half-maximal effect.

SMILES | 2A firefly | StopGo RLuc
Cc1ccccc1/[N+]([O-])=C/c1ccccc1 | 6% | -7%
CCc1ccc(NC(=O)CCn2nc(-c3ccccc3OC)c3c(C)cc(C)nc32)cc1 | -8% | 27%
Cc1ccc2nc(-c3cccs3)c(Nc3ccc4c(c3)OCCO4)n2c1 | 71%[activator] | 4%
Cc1cccc(C(=O)NCCc2c[nH]c3ccc(Cl)cc23)c1 | -9% | -5%
CC(C)Oc1ccc(CNC(=O)C2CCCN(S(=O)(=O)c3ccc4c(ccn4C)c3)C2)cc1 (stereo not given) | -3% | 15%
Cc1nc2nc(SCC(=O)NC3CCC(C)CC3)nn2c(C)c1Cc1ccccc1Cl (stereo not given) | -6% | -15%
COc1cccc(CNC(=O)CCn2cccn2)c1 | -14% | -12%
O=C(CC1N=C2c3ccccc3N=C(SCc3cccc(Cl)c3)N2C1=O)NC1CCCCC1 (stereo not given) | -18% | -19%
O=C(CSc1nc2c([nH]c3ccccc32)c(=O)n1-c1ccc(F)cc1)Nc1ccc2c(c1)OCO2 | -6% | -12%
Cc1ccc(-c2cnc(CCC(=O)Nc3c(C)cccc3C(C)C)o2)cc1 | 26% | 4%
CCCOc1cc2cc(C(=O)c3ccccc3O)cnc2cc1OCCC | 0% | 9%
COc1ccc(-c2ccc(=O)n(CC(=O)Nc3ccc(Br)cc3F)n2)cc1 | -10% | 6%
O=C1CN(CC(=O)Nc2ccc(F)cc2F)CCN1 | 9% | 0%
COc1cc(CNC(=O)N2CCN(Cc3ccc(Br)s3)CC2)ccc1OC(F)F | 190%[activator] | 13%
CC(C)c1ccccc1-n1c(SCC(=O)N2CCC2)nc2ccccc2c1=O | 0% | 92%[activator]
O=C(CSc1ccccc1C(=O)Nc1ccc2c(c1)OCCO2)NCc1ccco1 | 42%[activator] | 20%
CCOc1ccc(C(=O)Nc2ccc(C(=O)OCc3cc(=O)n4ccsc4n3)cc2)cc1 | 24% | 4%
CSC(C)C(=O)NC(CC(C)(C)C)c1ccc(F)cc1 (stereo not given) | -6% | 2%
Cc1cccc(N2CCN(C(=O)C3CCN(S(=O)(=O)c4cn(C)cn4)CC3)CC2)c1C | -24% | 10%
CNC(=O)Nc1ccc(NC(=O)C(c2ccc(Cl)cc2)C(C)C)cc1 (stereo not given) | -21% | -2%
COc1ccc2c(C)c(CCC(=O)N3CCN(Cc4ccccc4)CC3)c(=O)oc2c1 | -10% | 3%
CC(NC(=O)Cn1nc(-c2ccc(F)cc2)oc1=O)c1ccc(F)cc1 (stereo not given) | 0% | 1%
CCOC(=O)C(O)(NC(=O)c1ccccc1OCC)C(F)(F)F (stereo not given) | 84%[activator] | 22%
CCOC(=O)c1c(N)sc2c1CCN(Cc1ccccc1)C2 | 1%[11.5 µM] | -5%
Cc1cccc(NC(=O)CSc2nncn2C)c1 | 11% | -7%

Gathered by group: those above containing bromine.
SMILES | 2A firefly | StopGo RLuc
COc1ccc(-c2ccc(=O)n(CC(=O)Nc3ccc(Br)cc3F)n2)cc1 | -10% | 6%
COc1cc(CNC(=O)N2CCN(Cc3ccc(Br)s3)CC2)ccc1OC(F)F | 190%[activator] | 13%

Next results follow:
SMILES | 2A firefly | StopGo RLuc
CCC(=O)N1CCc2cc(Br)cc(S(=O)(=O)N3CCC(C(=O)NC(C)(C)C)CC3)c21 | -14% | 1%
COc1ccc(S(=O)(=O)Nc2nc3ccccc3nc2Nc2cccc(C(F)(F)F)c2)cc1 | 8% | 12%
CCOC(=O)CSc1nc2sc3c(c2c(=O)n1Cc1ccccc1)CCC(C(C)(C)C)C3 (stereo not given) | -12% | -4%
CCOC(=O)c1noc2ncnc(NCc3ccccc3OC)c12 | 3% | 2%
O=C(NC1CC(=O)N(c2ccc(F)cc2)C1)c1ccco1 (stereo not given) | -10% | -7%
Cc1ccc(CNC(=O)Cn2c(CO)cnc2SCC(=O)Nc2c(C)cc(C)cc2C)cc1 | 1% | -1%
O=C(NCCCN1CCCCC1)c1cc(Sc2ccc(Cl)cc2)nc2ccccc12 | -2% | -5%
Cc1ccc(N(Cc2cccs2)C(=O)c2cccc(C)c2)cc1 | ? | 0%
O=C(Cc1ccc(F)cc1)NCCNC(=O)c1cc(=O)[nH]c2ccccc12 | -6% | -8%
Cc1ccc(Cl)cc1N1CCN(C(=O)c2cnn(C(C)(C)C)c2C2CCN(C(=O)OC(C)(C)C)CC2)CC1 | -6% | -4%
Cc1ccc2oc(=O)c(-c3nc(-c4ccc(F)cc4)no3)cc2c1 | 1% | -3%
O=C(CSc1nccn1Cc1ccc(F)cc1)Nc1ccc2c(c1)OCCO2 | 41%[activator] | -6%
CCc1ccccc1NC(=O)C1CCN(S(=O)(=O)c2ccc3[nH]c(=O)ccc3c2)CC1 | -9% | -4%
CCOc1ccc2c(c1)O/C(=C\c1ccccc1OS(C)(=O)=O)C2=O | 101%[activator] | 30%
O=c1c2oc3ccccc3c2n(Cc2ccc(Cl)cc2)c(=O)n1Cc1ccc2c(c1)OCO2 | 1% | -5%
CCOc1ccc2nc(C)cc(Nc3ccc(C(=O)OC)cc3)c2c1 | -3% | -22%
CCc1cc2c(=O)c(-c3ccc4c(c3)OCCCO4)coc2cc1OS(C)(=O)=O | ? | ?
CC(C)c1ccc(S(=O)(=O)N2CCN(c3nc(-c4cccnc4)nc4ccccc34)CC2)cc1 | 1% | -11%
c1coc(CNC2CCCCC2)c1 | -3% | 8%
Cc1ccccc1Cn1c(SCc2ccc(C(=O)NC3CCCCC3)cc2)nc2ccncc21 | -8% | -12%
C#C[C@]1(OC(C)=O)CCC2C3CCc4cc(OC(C)=O)ccc4C3CCC21C (stereo not given in full) | 46%[activator] | 25%
CCC(=O)n1nc(-c2ccc(OC)cc2)nc1SCc1ccccc1 | 54%[activator] | -3%
O=[N+]([O-])c1ccccc1/C=C/C=N/Nc1nc(Cl)c(Cl)cc1Cl | 24% | -6%[1.06 µM]
COc1ccccc1CNc1ncnc2c1nnn2C | -13% | -2%
CN(CC(=O)NC1(C#N)CCCCC1)Cc1ccc(C(F)(F)F)cc1 | 0% | 5%

Copied from the list:
StopGo RLuc result of CCOc1ccc(C(=O)Nc2ccc(C(=O)OCc3cc(=O)n4ccsc4n3)cc2)cc1 = 4%
2A firefly result of CC(C)c1ccc(S(=O)(=O)N2CCN(c3nc(-c4cccnc4)nc4ccccc34)CC2)cc1 = 1%

More records:
SMILES | 2A firefly | StopGo RLuc
CC(C)(C)c1cc(N)c(O)c(Cl)c1 | 38%[activator] | 13%
COc1cc(NC(=O)c2ncoc2-c2ccc(OC)c(OC)c2)cc(OC)c1 | 7% | 12%
CCOc1ccc(NC(=O)c2ccc3c(c2)CCN3S(=O)(=O)CC)cc1 | 0% | 4%
Fc1ccc(-c2noc3ncnc(NCCc4ccc(Cl)cc4)c23)cc1 | 33% | 12%
Cc1ccc(-c2nc(C(=O)NCc3ccccc3Cl)c3n2CCCCC3)cc1 | -3% | 8%
COc1cccc(NC(=O)CCc2ncc(-c3ccc(Cl)cc3)o2)c1 | 4% | -7%
CCN1C(=O)c2ccccc2S(=O)c2ccc(C(=O)NCc3ccc(Cl)cc3)cc21 (stereo not given) | 9% | -8%
O=C(NCCc1c[nH]c2ccccc12)c1ccc(Cl)cc1F | 263%[activator] | 34%[activator]
FC(F)Oc1ccc(CNC23CC4CC(CC(C4)C2)C3)cc1 | -3% | -4%[1.06 µM]
Cc1ccc(/C=C/c2ccc3cccc(O)c3n2)cc1C | 230%[activator] | 17%
O=C(NCCCc1ccccc1)c1ccc2c(c1)sc1nc(-c3ccc(F)cc3)cn12 | -6% | ?
Cc1ccc2oc(-c3cc(NC(=O)c4cccs4)cc(C)c3O)nc2c1 | -19% | -13%
O=C(CSc1nc2c(c(=O)[nH]1)CN(Cc1ccc3c(c1)OCO3)CC2)Nc1cc(F)ccc1F | -3%&2% | -10%&-17%
COC(=O)c1ccc(NC(=O)C(=O)NCCc2csc3nc(-c4ccccc4F)nn23)cc1 | -14% | -18%
Fc1ccc(Nc2c(-c3ccco3)nc3ccccn23)cc1 | 6% | 0%
CCC(CC)C(=O)Nc1nonc1-c1ccc(Cl)cc1 | 9% | 46%[activator]
COc1ccc(C)cc1-n1nnnc1SCC(=O)N1CCN(CC(=O)N2CCCC2)CC1 | 1% | 4%
COC(=O)c1cccc2c1-c1ccccc1C2=O | 1% | 7%
O=C(O)c1cc(N2CCOCC2)ccn1 | 13% | 12%
O=C(Cc1ccccc1)Nc1ccc(N2CCOCC2)c(Cl)c1 | 173%[activator] | 17%
Cc1ccc(-n2c(COCC(=O)O)nc3cccnc32)cc1 | -6% | -9%
N#Cc1ccc(CNc2ccccc2C(N)=O)cc1 | 60%[activator] | 19%
N#C/C(=C\c1ccc(-c2ccccc2Cl)o1)c1ccc(F)cc1 | 188%[activator] | 9%
CC[Si](C)(CC)COC(=O)CCC[N+](C)(C)C | -2% | 0%
CCCNC(=O)COC(=O)Cc1nn(C)c(=O)c2ccccc12 | 12% | 5%

Arranged by count of non-hydrogen atoms (smallest number first): 4 of the compounds above
SMILES | 2A firefly | StopGo RLuc
Fc1ccc(Nc2c(-c3ccco3)nc3ccccn23)cc1 | 6% | 0%
N#C/C(=C\c1ccc(-c2ccccc2Cl)o1)c1ccc(F)cc1 | 188%[activator] | 9%
CCN1C(=O)c2ccccc2S(=O)c2ccc(C(=O)NCc3ccc(Cl)cc3)cc21 (stereo not given) | 9% | -8%
O=C(CSc1nc2c(c(=O)[nH]1)CN(Cc1ccc3c(c1)OCO3)CC2)Nc1cc(F)ccc1F | -3%&2% | -10%&-17%

(cont.)
SMILES | 2A firefly | StopGo RLuc
Cc1noc(Cn2c(=O)c3ccccc3n(CC(=O)Nc3cccc(Cl)c3C)c2=O)n1 | 4% | -3%
Cc1nc2cc(F)ccc2cc1C(=O)NCC1CCCCC1 | 8% | 5%
CCCCC(=O)Nc1ccccc1C(C)CC (stereo not given) | 3% | -12%[1.06 µM]
O=c1oc2ccccc2c(NC2CCCCC2)c1NS(=O)(=O)c1ccccc1Cl | -7% | 83%[activator]
Cc1cccc(/C=N/NC(=O)CCc2ccccc2)c1 | 60%[activator] | 23%
S=C(N/N=C/C(c1ccccc1)c1ccccc1)Nc1ccccc1Cl | 49%[activator] | 36%[activator]
COc1ccc(CNC(=O)c2ccc(NC(=O)N3CC4CCCN4c4ccccc43)cc2)cc1 (stereo not given) | 18% | 0%
CCc1ccc(NC(=O)N(Cc2cn(CC)c3ccccc23)C2CCCCC2)cc1 | 292%[activator] | 10%
NS(=O)(=O)c1cc2c(cc1Cl)NC=NS2(=O)=O | -17% | -6%
Cc1cc(C)c2cc(C(=O)NCCN(C(C)C)C(C)C)[nH]c2c1 | -11% | -6%
O=C(O)C(Br)Cc1ccc(Cl)cc1 (stereo not given) | 12% | 0%
COCCn1c(SCc2ccccc2C#N)nnc1-c1ccc(Cl)cc1 | 12% | 0%
COc1ccc(-c2c(C)oc3cc(OCC(=O)NCCC4=CCCCC4)ccc3c2=O)cc1 | ? | ?
O=C(Oc1ccc(Cl)cc1)c1cc(-c2ccc3c(c2)OCCO3)on1 | 0% | -17%
CCN(C(=O)COC(=O)c1cc2ccccc2oc1=O)c1ccccc1 | 34%[activator] | 23%
CCCN1CCN(C(=O)c2ccc3[nH]c(C)c(C)c3c2)CC1 | 4% | -9%
Nc1ccc(O)cc1 | -10% | -9%
Cc1n[nH]c(C)c1/C=C/C(=O)c1ccc(Br)cc1 | 163%[activator] | -14%
COc1ccc(C(NC(=O)CSc2ccc(Br)cc2)c2nccn2C)cc1 (stereo not given) | -33% | -20%
NS(=O)(=O)c1ccc(NC(=O)CCn2c(=O)oc3ccccc32)cc1 | -8% | -3%
Cc1cc(C)cc(OCCC(=O)Nc2c(C)nn(C)c2C)c1 | 8% | -3%
O=C(Cn1ncn2c(cc3ccccc32)c1=O)NCc1ccc(F)cc1 | -9% | -2%
O=C(NCc1ccco1)c1cc2cc(Br)ccc2[nH]1 | 4% | 7%
CCCCC(CC)C(=O)NC12CC3CC(CC(C3)C1)C2 (stereo not given) | 11% | 9%
Cc1ccc2c(c1)-c1onc(C(=O)N(C)c3cccc(C(F)(F)F)c3)c1CO2 | 17% | 4%

Going on with the list.
SMILES | 2A firefly | StopGo RLuc
CC(C)(C)c1ccc(O)c(NC(=O)c2cc(F)cc(F)c2)c1 | ? | 2%[1.06 µM]
CCn1c(CN(c2ccccc2)S(C)(=O)=O)nnc1SCC(=O)c1cc(C)n(CC)c1C | 12% | 0%
O=C(c1ccc(Cl)cc1Cl)N(C1CCCCC1)C1CCCCC1 | ? | ?
Cc1ccc(-c2cc(C(=O)N3CCC(C(N)=O)CC3)c3ccccc3n2)c(C)c1 | 9% | 98%[activator]
Cc1c(CC(=O)O)c(=O)oc2cc(OCc3nn[nH]n3)ccc12 | -11% | -15%
COc1ccc(NS(=O)(=O)c2nnc(NC(=O)c3ccccc3F)s2)cc1 | 0% | 32%[activator]
Cc1ccc2occ(CC(=O)Nc3ccc(S(N)(=O)=O)cc3)c2c1 | -3% | -1%
Cn1c(=O)c2c(nc(Sc3ccccc3N)n2Cc2ccc(F)cc2)n(C)c1=O | 22% | -9%
CC(Nc1ccc(-c2nc(-c3ccccn3)no2)cc1[N+](=O)[O-])c1ccccc1 (stereo not given) | 86%[activator] | 6%

Shown with values under each structure: part of the list above
Sequence of screens: 2A firefly | StopGo RLuc
Cc1ccc(-c2cc(C(=O)N3CCC(C(N)=O)CC3)c3ccccc3n2)c(C)c1
→ 9% | 98%[activator]
Cc1c(CC(=O)O)c(=O)oc2cc(OCc3nn[nH]n3)ccc12
→ -11% | -15%
COc1ccc(NS(=O)(=O)c2nnc(NC(=O)c3ccccc3F)s2)cc1
→ 0% | 32%[activator]
Cc1ccc2occ(CC(=O)Nc3ccc(S(N)(=O)=O)cc3)c2c1
→ -3% | -1%
Cn1c(=O)c2c(nc(Sc3ccccc3N)n2Cc2ccc(F)cc2)n(C)c1=O
→ 22% | -9%

Rows are unselected; any-hit rate near 0.53%.
